Compound activity deposited in PubChem BioAssay by several laboratories.
T cruzi inh: inhibitors of intracellular T. cruzi growth, primary screen, luminescence, NIH3T3 host cells. inhibition, % (test concentration not listed). actives 1.4% (n = 300,000). AID 1885, 2009. T. cruzi beta-gal in NIH3T3, 90 h;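 active = mean inhibition across valid replicates above about 55%, limit read from the data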;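 note: signal also drops with host cell toxicity which is not excluded here; 0% = plate median of DMSO wells and 100% = zero luminescence signal; higher percent means less beta-gal luminescence so fewer parasites; stock transfer was 50 nL into about 50 µL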
A1 inh: caspase 3/7 activation in MEF A1-2A-BIM cells, primary screen, A1 inhibitor project, cell-based, luminescence, HTS | caspase activation, % (concentration not given with the values) | Caspase-Glo 3/7 luminescence, 3 h; percent of clofoctol response, vehicle zero | AID 2462, 2010 | actives 0.066% (n = 330,000);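 active = over half of replicate activation scores above 10%, or exactly half above 10 with the replicate mean above 10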;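 note: wells of about 30 µL received 50 nL stock; many hits fall short of the cut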
Ecoli rRNA inh: reduced GFP signal of wild-type E. coli, primary screen, bacterial rRNA inhibitor project, GFP/RFP fluorescence, OD600, single point; actives 1.6% (n = 350,000); GFP signal change (wild-type ribosome), % (concentration not given with the values); E. coli WT GFP vs humanized-ribosome RFP mutants, 24 h; stronger effect = lower value; DMSO median 0, no signal -100; AID 720706, 2013;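 active = significant combined selectivity score with lowered wild-type GFP, culture density cut under 30%, mutant RFP and density less affected; inactive = any of these conditions unmet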; note: one replicate is shown; some compounds called inactive have numbers as strong as hits
AF4-AF9 inh: inhibitors of AF4 peptide binding to AF9, primary screen, biochemical, AlphaScreen, biotin-AF4 peptide, FLAG-AF9, single point; Protein AF-9 (Homo sapiens), P42568; inhibition, % at 10 µM; actives 0.47% (n = 350,000); AID 651704, 2012;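 active = every replicate reaching a set inhibition limit, whatever the replicate mean, cut at about 25% in these data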;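 note: 0% = plate neutral control median and 100% = total signal loss; the record names both 10 and 1 µM as test concentration; the first replicate is given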
Target sequence (P42568 whole entry, looked up): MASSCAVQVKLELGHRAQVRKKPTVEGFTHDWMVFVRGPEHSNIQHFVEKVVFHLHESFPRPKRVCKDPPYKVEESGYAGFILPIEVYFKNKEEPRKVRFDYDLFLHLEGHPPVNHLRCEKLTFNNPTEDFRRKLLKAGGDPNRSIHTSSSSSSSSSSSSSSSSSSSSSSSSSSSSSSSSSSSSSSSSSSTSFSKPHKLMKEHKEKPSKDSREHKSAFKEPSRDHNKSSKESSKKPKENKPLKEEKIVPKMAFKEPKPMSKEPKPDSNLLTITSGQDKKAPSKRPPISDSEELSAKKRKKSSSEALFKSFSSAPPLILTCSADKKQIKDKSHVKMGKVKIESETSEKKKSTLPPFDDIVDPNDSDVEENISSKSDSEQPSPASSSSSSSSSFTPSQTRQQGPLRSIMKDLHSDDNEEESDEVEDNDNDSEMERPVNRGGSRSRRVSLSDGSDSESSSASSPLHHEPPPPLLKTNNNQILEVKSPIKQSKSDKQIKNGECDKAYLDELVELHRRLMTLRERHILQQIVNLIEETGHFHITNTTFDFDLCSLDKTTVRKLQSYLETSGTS
E coli growth: E. coli growth inhibition, primary screen, OD600; actives 0.21% (n = 330,000); OD600 absorbance (test concentration not listed); Escherichia coli growth, 23 h; stronger effect = lower value;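 active = OD600 absorbance below the run mean of sample wells minus 3.6 SD, in any replicate, cut at about 0.56 in these data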;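 note: stock transfer was 300 nL into about 60 µL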
Beta apoptosis: inhibitors of cytokine-induced beta cell apoptosis, primary screen, luminescence; INS-1E cytokine-induced death, ATP luminescence, 48 h; percent of positive-control rescue, neutral wells zero; protection from apoptosis, % (no concentration beside the values); actives 0.8% (n = 300,000);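 active = all replicates at 75% or more, or half of them and the mean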;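 note: 0% = cytokine-treated negative control wells and 100% = positive control rescue; higher means more ATP so stronger rescue from cytokine killing; wells of about 40 µL received 100 nL stock; the first replicate is given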
FGF22 binding: binders of human FGF22 protein, primary screen, FGF22 synaptogenesis inhibitor project, biophysical, thermal shift, single point; calls only at 9.99 µM; recombinant FGF22 thermal shift, SYPRO orange fluorescence; percent of sucrose octasulfate shift, DMSO zero; actives 1.5% (n = 340,000);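 active = melting point raised past a set limit in the mean and every replicate; three in four hits are not shown here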
Target sequence (Q9HCT0 whole entry, looked up): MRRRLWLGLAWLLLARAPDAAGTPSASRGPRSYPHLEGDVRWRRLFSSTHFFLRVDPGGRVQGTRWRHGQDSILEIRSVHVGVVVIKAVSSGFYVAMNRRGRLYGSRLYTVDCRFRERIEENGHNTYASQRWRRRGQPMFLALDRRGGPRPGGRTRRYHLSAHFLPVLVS
UCH37 inh: inhibitors of human UCH37 deubiquitinase, primary screen, biochemical, Ub-AMC cleavage, fluorescence; Ubiquitin carboxyl-terminal hydrolase isozyme L5 (Homo sapiens), Q9Y5K5; purified proteasome/UCH37; inhibition, % (test concentration not listed); actives 0.33% (n = 330,000); AID 588478, 2011;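 active = mean of two replicates above 20%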;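 note: 0% = compound-free wells with enzyme and 100% = wells lacking proteasome; stock transfer was 100 nL into about 20 µL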
Target sequence (Q9Y5K5 whole entry, looked up): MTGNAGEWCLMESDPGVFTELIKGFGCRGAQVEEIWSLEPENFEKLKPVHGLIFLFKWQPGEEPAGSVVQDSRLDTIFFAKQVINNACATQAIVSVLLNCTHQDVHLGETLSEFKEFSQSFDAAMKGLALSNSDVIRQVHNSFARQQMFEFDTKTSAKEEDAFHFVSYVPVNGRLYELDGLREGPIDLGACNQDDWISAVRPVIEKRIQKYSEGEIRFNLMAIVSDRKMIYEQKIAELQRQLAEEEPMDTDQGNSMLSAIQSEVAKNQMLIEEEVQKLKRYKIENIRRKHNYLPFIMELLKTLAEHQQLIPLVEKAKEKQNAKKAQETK
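System: Proteasome-associated human UCH37 deubiquitinase; Input: 0.15 nM proteasome in added enzyme buffer; Also added: Ub-AMC substrate from 1 µM stock; Incubation: 30 min compound-proteasome preincubation then 25 min substrate reaction, room temperature; Detection: fluorescence, ex 355 nm, em 460 nm; Read-out: % inhibition of Ub-AMC cleavage fluorescence; Benchmarks: no-proteasome and no-compound wells.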
Ecoli rRNA inh OD600: also measured in Ecoli rRNA inh; calls as there; OD600 change, %; measured here: OD600 growth;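 optical density of the mix in the first replicate; 0 = DMSO median and -100 = no signal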
Ecoli rRNA inh RFP: further read-out of Ecoli rRNA inh, marked with its call; RFP signal change, %; measured here: RFP humanized mutant strains;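 first replicate; 0 = DMSO median and -100 = no signal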
* hit, by the source's call; i = inactive; · = no result given.

SMILES	T cruzi inh	A1 inh	Ecoli rRNA inh	Ecoli rRNA inh OD600	Ecoli rRNA inh RFP	AF4-AF9 inh	E coli growth	Beta apoptosis	FGF22 binding	UCH37 inh
CCOC(=O)N1CCN(c2c(NCCCN(C)c3ccccc3)c(=O)c2=O)CC1	7.7	-0.2	3.8	-0.1	2.4	-1.0	0.725	·	i	3.1
COC(=O)c1ccccc1NC(=O)Cc1ccccc1OC	-13.8	1.9	·	·	·	·	0.647	-2.2	·	2.1
CCOc1ccc(NS(=O)(=O)c2cc(Cl)ccc2OC)cc1	0.7	-0.3	·	·	·	·	0.708	-0.1	·	1.7
CN1CCN(C2=Cc3ccccc3Sc3cc(F)c(F)cc32)CC1	14.4	0.5	·	·	·	·	0.642	1.1	·	4.5
CCOC(=O)N/N=C(\c1ccccc1)C(O)c1ccccc1 (centres undefined)	-0.3	0.3	11.1	9.7	0.2	-3.5	·	-4.7	i	·
O=C(CCCOC(=O)c1ccc(O)cc1)c1ccccc1	·	-1.5	-11.6	-22.0	4.3	0.2	0.654	1.8	i	1.4
C[C@H](NC(=O)c1nc[nH]c1C(=O)N1CCc2ccccc2C1)c1ccccc1	·	-1.4	-8.8	-9.9	-5.2	4.5	·	-4.4	i	0.3
Cc1nc(SCC(=O)NC2CCS(=O)(=O)C2)c2c(C)c(C)sc2n1 (centres undefined)	·	·	5.9	7.5	-2.7	2.5	0.639	·	i	5.6
Cc1nc2ccc(NC(=O)c3cc(S(=O)(=O)N4CCOCC4)ccc3C)cc2s1	-2.8	-1.5	·	·	·	·	0.737	-6.8	·	1.0
CCCCCn1c(=O)[nH]c2cc(C(=O)NCCCN3CCC(C)CC3)ccc2c1=O	-16.3	0.2	·	·	·	·	0.687	-0.7	·	-6.8
O=C(Nc1ccc(CN2CCOCC2)cc1)c1cccs1	1.4	-3.7	·	·	·	·	0.707	-2.1	·	1.5
Cc1cc(=O)oc2cc(OC(C)C(=O)NC3CCCC3)ccc12 (centres undefined)	-2.6	0.4	-0.3	0.5	0.1	0.1	0.655	-2.2	i	-28.4
O=C(c1cccs1)N1CCN(C(=O)C2CCCO2)CC1 (centres undefined)	-2.9	0.1	·	·	·	·	0.7	-0.3	·	-1.7
CCCCC1OC23CCCCC2C(C#N)(C(=N)O3)C1(C#N)C#N (centres undefined)	-14.9	0.3	·	·	·	·	0.738	0.7	·	-2.4
COc1ccccc1C(=O)NNC(=O)Cc1ccccc1	-7.3	0.8	-1.7	0.0	-4.2	-0.5	0.687	2.7	i	4.1
O=C(NCCOc1ccccc1)c1ccccc1	-4.9	-4.9	·	·	·	·	0.64	-1.2	·	0.1
CO/N=C(/CS(=O)Cc1ccccc1Cl)c1ccc(Cl)cc1Cl (centres undefined)	22.9	-0.3	-16.4	-6.5	3.8	7.3	·	·	i	·
CCc1ccc(S(=O)(=O)n2c(C)nc3ccccc32)cc1	-5.1	-1.2	4.7	-2.2	-1.1	-2.4	0.658	-1.1	i	4.2
O=C(NCc1ccco1)c1cc(-c2cccs2)on1	2.5	-1.0	·	·	·	·	0.743	6.0	·	0.0
Nc1cccc2c1C(=O)N(C(=O)/C=C/c1cccc(Br)c1)C2=O	13.3	·	2.5	5.3	10.7	-2.7	0.746	·	i	-68.3
O=C(O)c1cc(Cl)c(Cl)cc1C(=O)Nc1cccnc1	-6.2	0.7	33.4	22.9	1.1	-1.0	0.699	-4.4	·	0.2
CCOc1ccc(CN(C)C(=O)CNC(=O)c2cc(OC)c(OC)c(OC)c2)cc1	-6.5	1.9	2.2	11.8	4.6	-2.4	0.688	-2.3	i	1.6
O=C(COc1ccc(S(=O)(=O)Nc2ccccc2)cc1)N1CCOCC1	2.4	0.7	·	·	·	·	0.686	·	·	7.0
O=C(c1ccc(S(=O)(=O)N2CCCCC2)cc1)N(c1ccccn1)C1CCCCC1	9.9	0.3	6.9	-3.4	-4.8	-4.0	0.663	-0.6	i	0.4
Cn1c(=O)c2c(nc(SCC(=O)N3CCCCCC3)n2C)n(C)c1=O	5.2	-0.3	·	·	·	·	0.679	·	·	4.3
CSc1nc(-c2ccco2)nn1C(=O)CCc1ccccc1	-14.6	0.8	·	·	·	·	0.718	-1.9	·	3.5
COc1ccc(S(=O)(=O)/C(C#N)=C/Nc2cccc(OC)c2)cc1	4.1	0.3	-9.9	-4.2	5.9	0.3	0.689	-0.3	i	4.4
COc1ccccc1N(C)S(=O)(=O)c1ccc(C)c(C(=O)NCc2ccccn2)c1	·	0.4	-3.5	-3.5	-0.5	0.2	0.718	5.3	i	2.2
CCOC(CNC(=O)C(=O)NCC(c1ccco1)N1CCN(c2ccc(OC)cc2)CC1)OCC (centres undefined)	-3.7	-0.2	6.2	3.4	-1.3	3.9	0.683	-1.4	i	2.4
CC(Oc1ccc(Cl)cc1Cl)C(=O)Nc1ccc(N2CCN(C)CC2)cc1 (centres undefined)	15.4	-1.3	·	·	·	·	0.671	-0.6	·	3.6
O=C(CN1CCN(Cc2ccccc2)CC1)Nc1ccc(S(=O)(=O)N2CCOCC2)cc1	11.4	0.7	·	·	·	·	0.701	-0.4	·	4.0
O=Cc1cn[nH]c1-c1cccc([N+](=O)[O-])c1	-4.6	-0.4	14.4	-3.2	3.2	1.4	0.662	-4.8	i	1.6
COc1ccc(S(=O)(=O)CCC(=O)NC2CCCCC2)cc1	0.3	0.8	·	·	·	·	0.751	-1.8	·	0.4
CCC1CCCCN1C(=S)NCc1ccccc1 (centres undefined)	-1.1	1.5	·	·	·	·	0.7	1.3	·	5.8
CC1(C)CC(NC(=O)CSc2ccccc2)CC(C)(C)N1	-16.2	0.6	7.7	2.6	-1.3	0.3	0.668	-0.2	i	-1.1
CN(C)S(=O)(=O)c1ccc(NC(=O)CNc2cc(S(=O)(=O)N3CCCC3)ccc2OCC(F)(F)F)cc1	2.9	-0.3	·	·	·	·	0.721	0.9	·	-3.0
CCOc1ccc(CCNC(=O)CCc2nc(-c3ccc(C)cc3)no2)cc1OCC	18.8	0.3	·	·	·	·	0.712	-1.6	·	3.4
O=C(Nc1nc2c(s1)CCCC2=O)c1cnccn1	0.8	-11.8	·	·	·	·	0.701	0.6	·	13.1
CC1(C)C2CCC1(C)C(OC(=O)c1ccc(O)cc1)C2 (centres undefined)	20.7	-0.1	-16.4	-9.2	-8.1	0.9	0.742	·	i	3.9
O=c1[nH]c2cccnc2n1Cc1ccccc1	-21.4	0.6	·	·	·	·	0.732	-11.3	·	0.1
Cc1cc(OCc2cn3cccnc3n2)ccc1Cl	-8.3	-1.0	·	·	·	·	0.665	-5.5	·	-3.2
O=C(O)COc1ccc2oc3c(c2c1)CCCC3	-9.6	-1.1	-4.2	-22.5	-1.5	-5.2	0.659	-1.2	i	2.5
CN(CCn1ccnc1)Cc1cn(-c2ccccc2)nc1-c1ccc2c(c1)OCO2	19.5	-0.1	3.9	2.2	-1.2	2.5	0.666	-12.6	i	-0.8
COc1ccc(-c2cc(C(F)(F)F)n3nc(C(=O)N4CCOCC4)c(Cl)c3n2)cc1	-1.3	1.0	·	·	·	·	0.768	4.2	·	2.5
Cc1cc([N+](=O)[O-])nn1CC(=O)N1CCCc2ccccc21	-2.2	-0.7	11.5	-1.6	-5.4	1.2	0.689	-10.7	i	2.6
O=C(COC(=O)CCCN=C1NS(=O)(=O)c2ccccc21)NC(=O)NC1CCCC1	-7.6	0.3	0.7	-18.4	2.1	-4.2	0.694	-3.6	i	-0.9
CCC(=O)c1ccc(CCCCCC(=O)O)s1	17.0	1.2	·	·	·	·	0.735	-0.4	·	0.0
COc1ccc(C(OC(=O)c2ccco2)C(=O)NC(C)(C)C)cc1 (centres undefined)	-6.3	0.4	4.4	3.6	-5.8	-3.1	0.685	-4.1	i	-0.7
O=C(c1ccc(N2CCOCC2)cc1[N+](=O)[O-])N1CCOCC1	-6.9	-0.3	8.5	10.8	0.9	0.0	0.67	0.9	i	5.4
CC(=O)Nc1ccc(S(=O)(=O)N[C@@H](C)C(=O)OCc2ccc(Cl)cc2)cc1	0.9	0.5	-8.5	1.8	0.6	-9.7	0.654	-8.3	i	-0.7
O=C(NC(=S)Nc1ccc(N2CCOCC2)cc1)c1ccccc1	-6.8	1.1	14.1	11.2	0.8	1.8	0.725	4.0	i	0.3
O=C(c1cccc(Br)c1)c1cn(-c2ccccc2)nc1C(=O)c1ccccc1	30.8	-0.3	·	·	·	·	0.733	·	·	1.1
O=C(Cn1cnc2c(nnn2Cc2ccccc2F)c1=O)OCc1ccccc1	-6.0	-0.1	·	·	·	·	0.637	-1.1	·	2.6
CCN(CC)CCNC(=O)c1cc(-c2ccco2)nc2ccccc12	0.1	-0.1	22.4	24.0	-1.8	6.4	0.685	-2.8	i	i
COc1ccc(S(=O)(=O)CC2(O)CCN(C(=O)C(C)(C)C)CC2)cc1	11.8	0.9	10.1	-4.1	-0.2	-0.1	0.701	0.7	i	3.0
Cc1ccc(N(CC(=O)N2CCn3c2nc2ccccc23)S(=O)(=O)c2c(C)n[nH]c2C)cc1	-9.1	-0.2	·	·	·	·	0.663	4.9	·	2.6
O=C(CSc1nnc(C2COc3ccccc3O2)o1)NC1CCCCC1 (centres undefined)	5.4	-0.8	0.9	-5.2	1.5	-14.2	0.777	0.1	i	1.1
COc1ccc(C)cc1NC(=O)c1nnn(CCc2ccccc2)c1N	4.1	-0.1	5.7	13.5	0.7	-0.9	0.765	-0.9	i	3.3
CC(=O)N(C)c1ccc(NC(=S)NC(=O)/C=C/c2ccco2)cc1	-21.7	-0.2	1.8	1.6	0.6	5.3	0.704	-2.7	i	13.7
O=C(COc1ccc(Cl)cc1)OCc1ccc(Cl)cc1	·	·	6.3	8.1	-0.7	0.6	0.721	·	i	5.2
COc1ccc(NS(=O)(=O)c2ccc(-c3n[nH]c(=S)n3Cc3ccccc3)cc2)cc1	3.3	0.5	-35.0	-33.5	-6.1	-8.8	0.705	3.6	i	1.7

Sorted by value in Ecoli rRNA inh (smallest number first): some entries from above.
| structure | A1 inh | Ecoli rRNA inh | Ecoli rRNA inh OD600 | Ecoli rRNA inh RFP | AF4-AF9 inh | FGF22 binding | UCH37 inh |
| --- | --- | --- | --- | --- | --- | --- | --- |
| O=C(COC(=O)CCCN=C1NS(=O)(=O)c2ccccc21)NC(=O)NC1CCCC1 | 0.3 | 0.7 | -18.4 | 2.1 | -4.2 | i | -0.9 |
| CC(=O)N(C)c1ccc(NC(=S)NC(=O)/C=C/c2ccco2)cc1 | -0.2 | 1.8 | 1.6 | 0.6 | 5.3 | i | 13.7 |
| COc1ccc(C(OC(=O)c2ccco2)C(=O)NC(C)(C)C)cc1 (centres undefined) | 0.4 | 4.4 | 3.6 | -5.8 | -3.1 | i | -0.7 |

Only part of the results is shown, so the mix of outcomes need not match the whole.
